Source: PubChem BioAssay (National Center for Advancing Translational Sciences (NCATS))
Rango-impB inh: qHTS Assay for Inhibitors of Rango (Ran-regulated importin-beta cargo) - Importin beta complex formation; 340,000 compounds, 0.031% hits; Rango CFP/YFP FRET sensor + importin beta, 45 min; Potency, µM (series often up to 92.2 µM), without a hit: at the top dose inhibition of complex formation; Importin subunit beta-1 (Homo sapiens), Q14974; active = rising FRET ratio curve, often small or poorly fitted; inconclusive = mostly compound fluorescence or quenching in the first reads; inactive = flat curves in all reads;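 also: potency is read from the fitted curve at half-maximal effect; 0% = DMSO wells and 100% = buffer wells lacking importin beta; nearly all actives have a fitted effect of over 15% in size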
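FRET biosensor Rango (snurportin 1 IBB between N-terminal EYFP and C-terminal Cerulean), 50 nM in PBS/1 mM DTT/0.02% Tween-20/0.1% BSA, preincubated 5 min RT with compound; 0.125 microM importin beta added, 45 min RT, CFP/YFP FRET ratio read.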
miR-21 reporter: qHTS Assay for Modulators of miRNAs and/orActivators of miR-21. 340,000 tested, under 10 active. Potency, µM (highest dose often 38.3 µM), inactives show top-dose reporter change, positive = more light. HeLa miR-21 FLuc reporter, luciferase, 48 h. AID 2288, 2010; active = well fitted rising curve with a large enough effect; inconclusive = small, poorly fitted or top-dose-only effect; inactive = no such curve, though single readings can be large or run the other way;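 also: % of control where 0% means no effect; miR-21 action dims this reporter so a rising signal means less miR-21 action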
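Luminescence from a firefly luciferase reporter carrying a miR-21 binding site downstream, stably expressed under a CMV promoter in HeLa cells that make miR-21 endogenously, reports miRNA modulation after 48 h compound exposure up to approximately 40uM final.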
GLA inh pH 4.5: qHTS Assay for Inhibitors of Human alpha-Galactosidase at pH 4.5. Alpha-galactosidase A (Homo sapiens), P06280. purified enzyme, 4-MU-alpha-Gal fluorescence, pH 4.5. activity change, negative = inhibition, % at 105 µM. 230,000 tested, under 10 active. AID 1467, 2008; inconclusive = small, poorly fitted or top-dose-only inhibition, or a rising curve; inactive = flat fitted curve, though single readings scatter; no compound was filed as active;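 also: 0% = full activity with enzyme and -100% = basal without enzyme; dose as in the result columns while the protocol names 77 µM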
Target sequence (P06280 whole entry, looked up): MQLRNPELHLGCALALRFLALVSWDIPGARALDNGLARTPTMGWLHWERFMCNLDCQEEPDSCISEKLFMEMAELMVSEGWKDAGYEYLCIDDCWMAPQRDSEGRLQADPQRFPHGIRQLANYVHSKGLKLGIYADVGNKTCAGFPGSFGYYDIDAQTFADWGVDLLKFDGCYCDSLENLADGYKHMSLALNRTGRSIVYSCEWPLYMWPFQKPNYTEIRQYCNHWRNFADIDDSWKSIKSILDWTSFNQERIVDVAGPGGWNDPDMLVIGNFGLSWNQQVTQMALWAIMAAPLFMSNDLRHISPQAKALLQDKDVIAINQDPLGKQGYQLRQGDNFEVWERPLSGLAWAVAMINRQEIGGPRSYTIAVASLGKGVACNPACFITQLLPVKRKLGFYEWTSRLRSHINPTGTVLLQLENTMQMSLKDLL
Rango dissoc inh: qHTS Assay for Inhibitors of RanGTP induced Rango (Ran-regulated importin-beta cargo) - Importin beta complex dissociation; Snurportin-1 (Homo sapiens) + GTP-binding nuclear protein Ran (Homo sapiens) + Importin …; Biochemical FRET Rango-importin beta, RanGTP-induced dissociation; Potency, µM (top dose mostly 46.1 µM), for the others: top-dose activity change, negative = inhibition; 340,000 compounds, 0.071% hits; AID 540253, 2011; active means falling FRET ratio curve, often poorly fitted, with flat reads before Ran was added; inconclusive means other falling curves, or compound fluorescence or quenching; inactive means flat or rising ratio curve;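 also: potency is read from the fitted curve at half-maximal effect; % of control where 0% means no effect; nearly all actives have a fitted effect of over 45% in size; -100% = wells without RanGTP and RCC1; the record marks most hits as doubtful in a second field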
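Compounds sat 5 min at room temperature with 0.1 uM Rango biosensor plus 0.25 uM importin beta, then FRET pre-read. RanGTP-RCC1 (0.6 uM Ran, 2mM GTP, 0.2 uM RCC1) added for 45 min, and the CFP/YFP post-read measured blocked complex dissociation.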
* marks the source's active call; other numbers are inactive results; ? = inconclusive; · = no result given; & = joins results of further samples.

No.	smiles	Rango dissoc inh	GLA inh pH 4.5	miR-21 reporter	Rango-impB inh
1	O=C(CCCCCNC(=O)N1CCn2c1nc1ccccc12)N[C@@H](C(=O)O)c1ccccc1	-7.2%	·	-0.3%	0.2%
2	O=C(Cc1ccccc1)NCCC1=CCCCC1	1.0%	-6.0	-20.7%	-0.2%
3	CC(C)(C)OC(=O)COc1cc(F)ccc1[N+](=O)[O-]	-11.2%	·	·	-4.0%
4	COc1ccc(Nc2nc(-c3ccccc3)c3ccccc3n2)cc1	27.1%	-9.6	3.2%	0.5%
5	COC(=O)c1[nH]c2cc(OC)c(OC)cc2c1NC(=O)CN1CCN(Cc2ccccc2)CC1	·	1.7	-17.0%	·
6	CC(C)C(C(=O)Nc1cccnc1)N1C(=O)c2ccccc2C1=O (stereo not given)	19.1%	6.3	-0.7%	1.5%
7	CC(=O)Nc1cccc(NC(=O)CSc2nc3c(=O)n(C)c(=O)n(C)c3n2C)c1	0.0%	·	·	0.7%
8	Cc1ccccc1NC(=O)CSc1nnc(NC(=O)C2CC2)s1	3.8%	·	7.6%	-0.8%
9	COc1cc(C)nc(NS(=O)(=O)c2ccccc2)n1	42.8%	6.9	0.0%	0.8%
10	COCCCNC(=O)C1CCCN(C(=O)Nc2ccc(OC)cc2)C1 (stereo not given)	-2.4%	2.7	-0.3%	-0.5%
11	CCCCn1c(=O)[nH]c(=O)c2c1nc(-c1ccc(OCC)cc1)n2CC	-0.5%	·	-0.7%	1.5%
12	CCc1cccc2c(C(=O)C(F)(F)F)cn(CC(=O)NCC3CCCO3)c12 (stereo not given)	-3.1%	5.4	1.5%	-2.4%
13	C=CCSc1nnc(Cc2c(C)[nH]c3ccccc23)o1	-0.1%	4.8	-16.9%	-3.1%
14	COc1ccc(N2CCN(C(=O)Cn3cnc4c(cnn4-c4ccc(C)cc4)c3=O)CC2)cc1	-3.7%	-5.7	4.6%	-0.3%
15	CN(C)CC#Cc1cncc(C(=O)NNC(=O)Nc2ccc(Cl)cc2)c1	-5.3%	-4.9	-8.3%	-0.1%
16	COc1cc(O)c(CCO)c2c1C(=O)C[C@@H](C)O2	-10.0%	2.3	-2.5%	1.5%
17	C/C(=N\Nc1nc(N2CCCCC2)nc(N2CCOCC2)n1)c1cccs1	16.4%	-1.2	2.3%	-0.3%
18	Cc1csc(=Nc2ccc(S(=O)(=O)N3CCOCC3)cc2)n1Cc1ccco1	?	-6.3	1.9%	-0.6%&-0.6%
19	COc1ccc(CC(=O)Nc2c3c(nn2-c2cccc(C)c2C)CS(=O)(=O)C3)cc1	5.3%	7.2	-8.7%	-0.2%
20	O=C1CC[C@@H](C(=O)N2CSC[C@H]2C(=O)O)N1	-0.6%	7.6	-3.6%	-3.1%

No.	smiles	Rango dissoc inh	GLA inh pH 4.5	miR-21 reporter	Rango-impB inh
21	Cc1csc(NC(C)c2nc3cc(Cl)c(N4CCCCC4)cc3n2CCOCCO)n1 (stereo not given)	-5.4%	·	·	-3.1%
22	COC(=O)c1ccc(COc2cccc3c2CCN(Cc2cccc(C)c2)C3=O)o1	-18.3%	-0.7	12.0%	-1.1%
23	Cc1ccc(/C=N\NC(=O)c2cc([N+](=O)[O-])cc([N+](=O)[O-])c2)o1	25.9%	-9.0	-2.0%	0.4%
24	COc1ccccc1N1CCN(C(=O)c2cccc3c(=O)c(C)c(-c4ccccc4)oc23)CC1	-7.2%	2.6	4.1%	-0.9%
25	CCOc1cccc(C(=O)Nc2ccc3ccccc3c2)c1	8.4%	·	-6.9%	-2.3%
26	CCN(CC)c1ccc2c(Cl)c(Br)c(=O)oc2c1	?	2.6	23.8%	?
27	CC1(C)CC(=O)N(c2ccc(Cl)cc2Cl)C(=O)C1	6.7%	·	-6.7%	1.7%
28	CC(=O)Nc1cccc(-n2c(=O)n(Cc3ccccc3)c(=O)c3[nH]cnc32)c1	1.3%	·	-8.2%	1.1%
29	COc1ccc(NC(=O)c2ccc(NC(=O)CN(C)CC(=O)Nc3c(C)cccc3C)cc2)cc1	-3.7%	1.2	1.5%	-1.8%
30	Cc1ncn(-c2ccccc2)c1-c1ccccc1	9.0%	·	·	2.5%
31	CCc1ccc(C(=O)N2CCCC2)s1	4.9%	-2.1	-23.0%	-0.1%
32	Cc1nc2c(-c3ccc(F)cc3)c(C)nn2c(C)c1CCC(=O)NCc1ccco1	-21.1%	2.1	0.9%	-2.6%
33	Cc1ccc2cc(C(c3nnnn3C3CCCC3)N3CCN(c4ccccc4)CC3)c(=O)[nH]c2c1 (stereo not given)	4.6%	3.0	6.9%	-1.4%
34	O=S(=O)(Nc1ccon1)c1ccc(Br)cc1	-6.5%	·	-0.1%	1.9%
35	COc1ccc(/C=C(/C#N)c2cccnc2)cc1OC	18.8%	·	-43.5%	1.0%
36	COc1cccc(C#Cc2c(CO)[nH]c3ccccc23)c1	0.5%	·	·	?
37	C/C(=N\O)c1ccco1	10.9%	·	·	-1.1%
38	O=C(NCC1CCCCC1)c1ccc(F)c(S(=O)(=O)N2CCOCC2)c1	-4.8%	·	·	0.2%
39	Cc1ccccc1OCC(=O)Nc1nnc(C2CCCCC2)s1	?	5.8	-9.2%	3.2%
40	COc1ccc(NS(=O)(=O)c2cccc(C(=O)N(C)Cc3cccs3)c2)cc1	-5.0%	·	·	0.0%

No.	smiles	Rango dissoc inh	GLA inh pH 4.5	miR-21 reporter	Rango-impB inh
41	COc1ccc(OC)c(/C=C/C(=O)OCC(=O)NCc2ccccc2)c1	-19.9%	·	·	-5.7%
42	O=[N+]([O-])c1ccc(N/N=C/c2cn(Cc3ccc(F)cc3)c3ccccc23)nc1	-15.5%	7.5	-5.0%	2.5%
43	O=c1[nH][nH]c(-c2ccccc2O)c1C(C[N+](=O)[O-])c1ccc(Br)cc1 (stereo not given)	0.5%	-7.2	?	0.4%
44	C=CCNC(=S)Nc1cccc(NC(=S)NCC=C)c1	0.3%	2.4	-7.2%	-2.7%
45	COc1ccc(-n2cnnc2SCC(=O)Nc2ccc(C(N)=O)cc2)cc1	-9.9%	·	-0.1%	-8.7%
46	COc1cccc2sc3cc(C#Cc4ccccn4)ccc3c(=O)c12	?	·	·	?
47	Cn1cc(Cl)c(C(=O)NC2CCCCCC2)n1	11.3%	-2.2	-32.8%	2.0%
48	Cc1cc(C)c2nc(SCCC#N)nc(C)c2c1	0.2%	2.0	-34.7%	0.0%
49	Cc1cc(NC(=O)CCC(=O)N(Cc2ccco2)C2(C(=O)NC3CCCC3)CCC(C)CC2)no1 (stereo not given)	-1.6%	·	-0.5%	-0.4%
50	Cc1ccccc1C(=O)N1CCC(C(=O)N(CC(C)C)c2c(N)n(CC(C)C)c(=O)[nH]c2=O)CC1	-2.3%	·	·	1.6%
51	COc1ccc(N2CCN(c3nc(Cl)nc(Nc4ccc(F)cc4)n3)CC2)cc1	-0.3%	3.6	-1.2%	-2.7%
52	CCC(C)NC(=O)c1ccc(C(=O)c2ccccc2)cc1 (stereo not given)	-7.7%	5.2	-20.3%	0.4%
53	CCn1c(COc2ccccc2)nc2ccccc21	-12.0%	-4.7	-45.5%	-3.9%
54	CCc1nn2c(=O)c(S(=O)(=O)Nc3cccc(F)c3)c(C)nc2s1	-1.9%	·	10.1%&13.0%	-1.5%
55	O=C1CCC[C@@H]2CC(N3CCCCC3)C[C@@H]3CCN1[C@H]23 (stereo not given in full)	0.0%	1.5	·	-3.5%
56	COc1ccccc1N1CCN(C(c2ccccn2)c2nnnn2C2CCCCC2)CC1 (stereo not given)	6.4%	0.4	-4.9%	-5.4%
57	C[C@@]12C(=O)N(Cc3ccc(-c4ccccc4)cc3)CC(=O)N1[C@H](/C=C/c1ccccc1)[C@@H]1C(=O)N(c3ccccc3)C(=O)[C@@H]12	2.0%	·	2.5%	-0.4%
58	C=CCNC(=O)C1CCN(S(=O)(=O)c2ccc(Br)cc2)CC1	6.2%	-21.6	17.1%	-0.7%
59	O=C1CC2(CCN(S(=O)(=O)c3ccccc3F)CC2)Oc2ccccc21	-2.6%	·	·	0.3%
60	Cc1ccc(C(=O)OCC(=O)Nc2ncc(Cl)cc2Cl)cc1NC(=O)c1ccco1	-12.0%	-2.5	3.6%	2.5%

Reformatted with the structure last: 10 of the compounds above.
nr | Rango dissoc inh | GLA inh pH 4.5 | miR-21 reporter | Rango-impB inh | Structure
44 | 0.3% | 2.4 | -7.2% | -2.7% | C=CCNC(=S)Nc1cccc(NC(=S)NCC=C)c1
45 | -9.9% | · | -0.1% | -8.7% | COc1ccc(-n2cnnc2SCC(=O)Nc2ccc(C(N)=O)cc2)cc1
46 | ? | · | · | ? | COc1cccc2sc3cc(C#Cc4ccccn4)ccc3c(=O)c12
47 | 11.3% | -2.2 | -32.8% | 2.0% | Cn1cc(Cl)c(C(=O)NC2CCCCCC2)n1
48 | 0.2% | 2.0 | -34.7% | 0.0% | Cc1cc(C)c2nc(SCCC#N)nc(C)c2c1
49 | -1.6% | · | -0.5% | -0.4% | Cc1cc(NC(=O)CCC(=O)N(Cc2ccco2)C2(C(=O)NC3CCCC3)CCC(C)CC2)no1 (stereo not given)
50 | -2.3% | · | · | 1.6% | Cc1ccccc1C(=O)N1CCC(C(=O)N(CC(C)C)c2c(N)n(CC(C)C)c(=O)[nH]c2=O)CC1
51 | -0.3% | 3.6 | -1.2% | -2.7% | COc1ccc(N2CCN(c3nc(Cl)nc(Nc4ccc(F)cc4)n3)CC2)cc1
52 | -7.7% | 5.2 | -20.3% | 0.4% | CCC(C)NC(=O)c1ccc(C(=O)c2ccccc2)cc1 (stereo not given)
53 | -12.0% | -4.7 | -45.5% | -3.9% | CCn1c(COc2ccccc2)nc2ccccc21

Remaining list, next part.
No.	smiles	Rango dissoc inh	GLA inh pH 4.5	miR-21 reporter	Rango-impB inh
61	CCN(CC)S(=O)(=O)c1cccc(NC(=O)CNc2cccc(S(=O)(=O)N3CCCC3)c2)c1	1.0%	·	23.8%	0.7%
62	COc1ccc(C(=O)C2=NN(C(C)=O)CC2c2ccco2)cc1 (stereo not given)	-5.8%	8.3	-31.6%	-1.7%
63	CC1CCc2c(C(=O)Nc3ccc(OC(F)(F)F)cc3)csc2C1 (stereo not given)	-7.4%	-11.4	-15.0%	3.5%
64	NC(=O)/C(=N\OC(=O)c1ccco1)c1nc(-c2ccc(Br)cc2)cs1	-10.3%	7.1	-15.0%	1.8%
65	Cc1ccc(NC(=O)c2ccccc2OCc2ccc([N+](=O)[O-])cc2)nc1	-14.5%	6.0	-1.8%	0.4%
66	COc1cc(OC)cc(-c2c(-c3cccs3)c3cc(-c4ccc(OC)nc4)ccc3n2C)c1	3.1%	·	·	-1.8%
67	CCc1c(C)nc(SC/C=C/c2ccccc2)[nH]c1=O	1.4%	·	-0.6%	2.2%
68	CCC(=O)N(C1=C(NC)C(=O)c2ccccc2C1=O)C(C)C	17.5%	4.0	?	5.2%
69	CC(=O)N1CCc2ccc(S(=O)(=O)Nc3ccccc3Cl)cc21	0.7%	3.0	-11.4%	0.4%
70	COC(=O)C1=C(C)N(Cc2cccnc2)C(=O)/C1=C\c1cccs1	·	-6.9	-10.1%	·
71	CCCOc1ccc(N2C(=O)CC(N3CCC(c4nc5ccccc5o4)CC3)C2=O)cc1 (stereo not given)	·	0.4	-0.3%	·

The list is partial; rates above refer to the full screens.
